# MT1-MMP act inh – inhibitors of human MT1-MMP activation | HT1080 RFP-PRO-GFP cells, GFP/RFP ratio fluorescence, overnight; percent of plate control window, DMSO zero | GFP/RFP ratio change, % at 20 µM | 0.061% of 360,000 active | AID 651647;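 active means GFP/RFP ratio change of at least 30% with cell ATP level not reduced by more than half and red fluorescence within 50% of control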; further: strong numbers were not always called active
#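 Assay system – RFP-PRO-GFP reporter HT1080 cells · Compound dosing – single dose of 20 µM compound, 1% DMSO final · Incubation – overnight compound exposure at 37 °C · Measure – GFP/RFP fluorescence ratio · Benchmarks – DMSO wells and RFP-L50D-GFP cells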
# UUG fidelity – modulators of start codon recognition fidelity in yeast. AID 602363. 0.13% of 350,000 active. activity score, % at 18.7 µM. S. cerevisiae UUG-firefly luciferase reporter, luminescence/redox ratio;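 active means replicate mean at a twofold rise or more, about +100% in these data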;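 further: firefly luciferase made from a UUG start codon reports start codon fidelity; reporter light over untreated wells divided by growth signal over untreated wells; some hits fall short of that in this replicate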
# Rce1 inh – inhibitors of yeast Ras-converting enzyme | Q03530 | AID 2563 | yeast membranes, quenched prenylated peptide cleavage fluorescence | 0.27% of 290,000 active | calls only;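 active means fall in fluorescence gain of 50% or more versus controls, with final raw signal at or below 3038400; inconclusive means same 50% fall but final raw signal above 3038400; inactive means fall in fluorescence gain under 50%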;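 further: plate controls were neutral control wells for no effect and wells lacking membranes for full effect; tested at 10 µM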
# Target sequence (Q03530 whole entry, looked up): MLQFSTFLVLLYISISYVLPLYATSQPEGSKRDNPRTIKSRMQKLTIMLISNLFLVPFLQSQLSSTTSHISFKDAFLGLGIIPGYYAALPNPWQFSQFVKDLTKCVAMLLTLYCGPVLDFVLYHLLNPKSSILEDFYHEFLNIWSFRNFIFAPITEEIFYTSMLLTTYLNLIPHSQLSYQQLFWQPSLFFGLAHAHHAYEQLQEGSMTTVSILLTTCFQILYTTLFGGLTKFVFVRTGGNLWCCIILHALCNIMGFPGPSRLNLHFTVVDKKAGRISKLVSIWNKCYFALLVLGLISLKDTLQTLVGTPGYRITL
# CSC inhib – blocks cancer stem cells. cancer stem cell-like cells viability, luminescence. inhibition, % at 7.5 µM. 1.1% of 300,000 active;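 active means mean at 75% or more and at least half the replicates too; inconclusive means mean and replicates disagree; tested in HMLE shEcad cells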;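 further: 0% = median of negative and 100% = median of positive control wells; the first replicate is given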
# PABP FP inh – blocks human PABP binding to poly(A) RNA; inhibition, % at 35 µM; fluorescence polarization; 1% of 290,000 active; AID 2014; P11940;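 active means 50% or more with normal probe brightness, or confirmed in later tests; inconclusive means above 50% with abnormal brightness, or retests that disagree; inactive means below 50% or failed in later tests; about a fifth of its hits are not listed in these tables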;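 further: calls also rest on retests at 20 µM and on dose response follow-up; controls were probe without protein and protein plus probe with vehicle; some compounds called inactive have numbers as strong as hits; many hits fall short of the cut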
# Target sequence (P11940 whole entry, looked up): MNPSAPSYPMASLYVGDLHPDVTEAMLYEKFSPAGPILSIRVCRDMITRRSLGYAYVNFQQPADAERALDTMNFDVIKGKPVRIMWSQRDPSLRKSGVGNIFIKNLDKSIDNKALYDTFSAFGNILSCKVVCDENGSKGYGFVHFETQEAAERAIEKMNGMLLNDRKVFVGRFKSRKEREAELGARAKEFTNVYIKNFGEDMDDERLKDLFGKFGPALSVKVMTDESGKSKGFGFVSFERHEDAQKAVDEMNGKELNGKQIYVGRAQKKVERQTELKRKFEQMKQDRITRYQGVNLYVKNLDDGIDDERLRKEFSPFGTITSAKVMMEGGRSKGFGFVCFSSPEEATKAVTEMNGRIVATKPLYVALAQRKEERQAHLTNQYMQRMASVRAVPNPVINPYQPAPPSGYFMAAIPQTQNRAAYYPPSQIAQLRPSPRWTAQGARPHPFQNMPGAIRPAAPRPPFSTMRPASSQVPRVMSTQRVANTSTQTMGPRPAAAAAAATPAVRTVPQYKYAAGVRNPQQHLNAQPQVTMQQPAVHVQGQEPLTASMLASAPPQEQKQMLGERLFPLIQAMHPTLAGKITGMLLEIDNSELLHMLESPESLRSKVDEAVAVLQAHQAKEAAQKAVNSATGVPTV
# eIF4H FP inh – inhibitors of RNA binding by human eIF4H. Q15056. eIF4H fluorescence polarization binding assay. inhibition, % at 35 µM. 0.94% of 290,000 active;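 active means 50% or more with normal probe brightness, or confirmed in later tests; inconclusive means above 50% with abnormal brightness, or retests that disagree; inactive means below 50% or failed in later tests; about a fifth of its hits are not listed in these tables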;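 further: calls also rest on retests at 20 µM and on dose response follow-up; 0% = protein and probe with vehicle and 100% = probe without protein; strong numbers were not always called active; many hits fall short of the cut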
# Env fusion inh – inhibitors of HIV Env-mediated cell fusion; HeLa-JRFL Env/CEM21 cell fusion, luciferase; inhibition, % at 12.3 µM; 1.1% of 360,000 active; AID 651610;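 active means mean replicate inhibition score of at least 50 and every replicate individually at or above 50; inconclusive means only one of the two criteria met; inactive means mean below 50 and not all replicates reaching 50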;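 further: 0% = plate neutral controls and 100% = maraviroc near 300 nM; one replicate is shown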
# MT1-MMP act inh RFP – recorded beside MT1-MMP act inh, whose call it bears; RFP signal change, %; measured here: RFP expression control read;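 0 = vehicle wells; hits needed this value within 50% of zero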
# * hit, by the source's call; i = inactive; u = inconclusive; x = no result given; & = joins results of further samples; [ ] = another dose, or the depositor's remark. These rows are one share of the data; count on the stated rates, not on these rows.
# Value order: MT1-MMP act inh, MT1-MMP act inh RFP, UUG fidelity, Rce1 inh, CSC inhib, PABP FP inh, eIF4H FP inh, Env fusion inh
> CCOC(=O)c1ccc(NC(=O)CCSCCc2ccccn2)cc1
 : -3, -4, -14, i, 1, 5, -2, 0
> O=[N+]([O-])c1cccc(N2Cc3ccccc3C2)c1
 : -1, 0, -12, i, 8, 11, 2, -3
> Cc1ccc(C(=O)n2cnnc2N)cc1
 : -1, 3, -23, i, 1, 0, -10, -91
> O=C(COc1ccccc1F)Nc1ccc(N2CCOCC2)cc1N1CCOCC1
 : -2, -2, -21, x, x, x, x, 6
> OC(COC(c1ccc(F)cc1)c1ccc(F)cc1)CN1CCCC1 (stereo unspecified)
 : 3, 3, -13, i, -3, 3, 0, -5
> COc1cccc(-c2cc(C(F)(F)F)n3ncc(C(=O)O)c3n2)c1
 : 6, 1, -12, i, -6, 5, 8, x
> COc1ccc(Cl)cc1NC(=O)Nc1ccc(C(=O)N2CCCC2)cc1
 : 1, 1, -10, i, 21, 6, -15, 15
> CC(=O)NC(c1ccc(F)c(F)c1)c1nc(-c2cnn(C)c2)cs1 (stereo unspecified)
 : 0, 3, -19, x, x, x, x, -173
> Cc1ccccc1NC(NC(=O)c1cccnc1)C(Cl)(Cl)Cl (stereo unspecified)
 : 3, 1, x, i, -18, 13, -5, -7
> CCOc1ccc(/C=C(/NC(=O)c2ccc(Cl)cc2)C(=O)O)cc1OCC
 : -10, -3, x, i, 4, 1, -2, 1
> Clc1ccc(CN2CCCCCC2)cc1
 : -1, 2, -6, i, 2, -8, 24, -62
> COc1cc(OC)c(C2C3=C(CCCC3=O)Nc3nc4ccccc4n32)cc1OC (stereo unspecified)
 : 5, 2, x, i, x, -5, -7, x
> Cc1cc(C)cc(NC(=O)C2CCCN2S(=O)(=O)c2ccc3c(c2)n(C)c(=O)c(=O)n3C)c1 (stereo unspecified)
 : 4, 6, -3, i, -12, 6, -10, -21
> CC1CCc2cc(F)ccc2N1C(=O)CSc1nnc2c(n1)[nH]c1ccc(F)cc12 (stereo unspecified)
 : -11, -14, -17, i, 46, 2, -7, x
> Cc1cc(=O)n2[nH]c(CCC(=O)O)nc2n1
 : -3, 3, x, i, -16, 4, -4, 5
> O=C1c2oc3ccc(F)cc3c(=O)c2C(c2ccccc2)N1CC1CCCO1 (stereo unspecified)
 : 17, -4, -11, i, -9, 0, -9, -14
> Cc1cc(C)n(-c2ccc(C(=O)OCC(=O)Nc3ccc(S(N)(=O)=O)cc3)cc2)n1
 : 1, 2, 2, x, 4, x, x, -23
> Nc1ccc(S(=O)(=O)NC2=NCCCCC2)cc1
 : 5, 7, -5, i, 10, -1, -1, 10
> Cc1cccc(N(CC(=O)NCc2ccco2)C(=O)CCC(=O)Nc2nccs2)c1C
 : 0, -1, 3, i, -13, 1, -5, 11
> COc1cccc(/C=N/NC(=O)CN(CCc2ccccc2)S(=O)(=O)c2ccc(NC(C)=O)cc2)c1
 : -4, -5, x, i, 18, -18, -11, x
> Cc1ccc(-n2c(N)c(C(=O)NCc3ccco3)sc2=S)cc1
 : 1, 7, -11, i, -11, 7, 3, 0
> CNC(=S)Nc1cccc(Cl)c1C
 : 0, 4, -30, i, 3, -10, 2, 4
> COc1cc(S(=O)(=O)N2CCOCC2)cc(C(=O)OCC(=O)NCc2ccco2)c1OC
 : -3, 0, 2, x, -4, x, x, 0
> CCN(CC)CCN1C(=O)C(=O)/C(=C(/O)c2ccc(S(=O)(=O)N3CCOCC3)cc2)C1c1ccccc1 (stereo unspecified)
 : 3, 3, -20, i, 4, -1, 7, -8
> CN1CCN(c2nc3c(c(=O)n(C)c(=O)n3C)n2Cc2ccc(F)cc2)CC1
 : -3, 0, -20, i, -11, -4, -2, 22
> O=C(NCC1COc2ccccc2O1)C1C2C=CC3(CN(Cc4cccs4)C(=O)C13)O2 (stereo unspecified)
 : 1, 1, -11, i, -9, 8, 1, -9
> Cc1[nH]c2ccccc2c1C(=O)COC(=O)c1c(-c2ccccc2Cl)noc1C
 : 1, -6, -12, i, 37, -12, -3, -139
> Cc1cc(F)ccc1NC(=O)CCCN(C)S(=O)(=O)c1ccc(F)cc1
 : -2, 2, -12, i, 8, 0, 1, -4
> Cc1cc(C)n(-c2nnc(NCc3ccc(Cl)cc3)nn2)n1
 : 0, 2, x, i, -3, -4, -6, 12
> CCOC(=O)c1cc(-c2ccccc2)sc1NC(=O)CN1C(=O)NC(CC)(c2ccccc2)C1=O (stereo unspecified)
 : -3, -4, -3, i, 4, 4, -2, 18
> Cc1cc(C)n2nc(SCC(=O)NC(=O)NCc3ccco3)nc2n1
 : -1, -2, x, i, -8, 12, 10, -6
> Cc1nn2c(-c3ccc(F)cc3)ccnc2c1Br
 : -2, -5, -21, i, 4, 1, -11, 0
> Cc1cc2nc(-c3ccc[nH]c3=O)n(Cc3ccc(F)cc3)c2cc1C
 : 0, 1, -9, i, -14, 2, -6, 10
> COc1ccc2c(c1)c(C(=O)CN1CCCCC1)c(C)n2C
 : 4, 3, 11, i, -1, x, x, -9
> Cc1cccc(NC(=O)c2nc[nH]c2C(=O)Nc2ccccc2[N+](=O)[O-])c1
 : -1, 2, x, i, 13, 9, 12, -43
> COc1cc(OC)c(N(C)S(=O)(=O)c2cccc(C(=O)Nc3nccs3)c2)cc1Cl
 : 7, -11, -9, x, 7, x, x, 16
> COC(=O)NC(C)N1C(=O)C2C3C=CC(C3)C2C1=O (stereo unspecified)
 : 0, 0, x, x, -6, 1, 3, 10
> O=C(/C=C/c1ccccn1)c1cc(Cl)cc(Cl)c1O
 : -3, 4, -11, i, u, 31, 15, -15
> COc1ccc(NS(=O)(=O)c2cc(NC(=O)COc3ccccc3)ccc2N2CCOCC2)cc1
 : 5, -1, -5, x, -27, x, x, -17
> O=C(C1CCC1)N1CCCc2cc(S(=O)(=O)N3CCN(c4ccccc4)CC3)ccc21
 : 1, -8, -13, i, 1, 5, -15, -10
> CCCCOC(=O)CCNc1n[nH]c(=O)[nH]c1=O
 : 0, 2, -3, i, -7, 0, -3, -21
> O=C(Nc1ccncc1)c1cccc(S(=O)(=O)N2CCc3ccccc32)c1
 : 11, -29, x, i, 0, x, x, 10
> O=[N+]([O-])c1cccc(N/N=C/c2cccc3ccccc23)c1
 : 0, -3, x, i, 43, 2, -4, -57
> O=C(Cn1nc([N+](=O)[O-])nc1Br)NC(c1ccccc1)c1ccccc1
 : 2, -3, x, i, -4, 6, -7, -15
> Brc1cc2c(cc1Cn1c(-c3cncs3)nc3ccccc31)OCO2
 : 2, -3, -14, x, -10, -8, -4, x
> Cc1ccc(S(=O)(=O)CCC(=O)OCC(=O)N(C)CC(=O)Nc2ccc(F)cc2)cc1
 : -1, 1, x, i, -4, x, x, 12
> O=C(c1ccc(-n2cccc2)cc1)N1CCCCC1
 : 4, 0, x, i, -1, 0, -4, 0
> O=C(NNS(=O)(=O)c1ccccc1F)c1ccccc1-n1cccc1
 : -2, -1, 0, i, -6, -5, -2, 12
> O=S(=O)(N/N=C/c1c(F)cccc1Cl)c1ccccc1
 : 2, 2, -1, i, -5, -1, -11, x
> CCn1c(SCC(=O)NCCc2ccc(OC)c(OC)c2)nc2c1c(=O)n(C)c(=O)n2C
 : -5, -7, x, i, 0, 4, -2, -5
> CCOC(=O)c1[nH]c(C)c(C(=O)NCc2ccc(OC)cc2)c1C
 : 1, 0, -4, i, x, 0, 4, -13
> O=C(CCN1CCOCC1)N1CCCC(Nc2cccc(F)c2)C1 (stereo unspecified)
 : -1, -1, 0, i, -10, -12, -2, 3
> COc1ccc(Cn2c(=O)oc3ccccc32)cc1OC
 : 0, -17, -1, x, x, x, x, 1
> CC1CCCCN1C(=O)CSc1nc2c(c(=O)n(C)c(=O)n2C)n1C (stereo unspecified)
 : -4, -1, -8, x, -6, 27, -7, -7
> COc1nccnc1NS(=O)(=O)c1ccc(NCc2ccccc2O)cc1
 : -1, -2, -10, i, -10, -1, 0, 8
> COC(=O)c1cc(NC(=O)CSc2nncn2C)cc(C(=O)OC)c1
 : -3, 2, -13, i, x, -1, -2, -18
> CCOC(=O)c1sc2ncn(C(C)C(=O)OCC)c(=O)c2c1C (stereo unspecified)
 : 3, 3, -4, i, x, -6, -1, x
> O=C(CSc1ncccn1)NCCC1=CCCCC1
 : -3, 2, 8, i, 11, x, x, -3
> CCn1c(CC(=O)Nc2cccc(OC)c2)nnc1SCC(=O)Nc1nccs1
 : -2, -4, x, i, -5, -4, -3, x
> CCCN1CCN(CC(=O)Nc2nncs2)CC1
 : -2, 1, -4, i, -11, -7, -3, -63

# New compounds follow
# Value order: MT1-MMP act inh, MT1-MMP act inh RFP, UUG fidelity, Rce1 inh, CSC inhib, PABP FP inh, eIF4H FP inh, Env fusion inh
> COc1ccc(NC(=O)CN(C)CC(=O)Nc2ccc(Cl)c(S(=O)(=O)N(C)C)c2)cc1
 : 4, 0, -12, i, 7, -1, 5, 14
> O=C(COc1ccccc1)Nc1ccc(N2CCN(C(=O)c3cccs3)CC2)cc1
 : 5, 4, -1, i, -9, 14, -2, 8
> CCC1CN(C(=O)N2CCC(C(=O)NCCc3ccccc3OC)CC2)c2ccccc2O1 (stereo unspecified)
 : 3, -2, 0, i, 0, -2, -14, 7
> CCNC(=S)N/N=C/c1c(Cl)cccc1Cl
 : 2, -2, x, i, -9, -1, -11, -20
> CC(C)c1ccc(NC(=O)CCC(=O)NCc2ccco2)cc1
 : -3, -1, -2, i, 19, 5, -4, 10
> C[C@@H]1CN([C@@H](C)CO)C(=O)c2cc(Br)cnc2O[C@H]1CN(C)C(=O)Nc1ccc2c(c1)OCO2
 : 1, 5, 4&3, x, x, x, x, -17[16.7 µM]
> Cc1ccc(CNC(=O)CCNS(=O)(=O)c2ccc(C)cc2)cc1
 : -11, 0, -12, i, -5, -6, -5, -88
> CC(Oc1cccc(Cl)c1)C(=O)N1CCN(c2ncccn2)CC1 (stereo unspecified)
 : 0, 0, -9, x, x, x, x, 4
> O=C(NCCCn1ccnc1)c1ccc(COc2ccccc2)o1
 : 2, -3, -15, i, -4, x, x, 20
> COc1ccc(Cn2c(O)c(C=Nc3ccc(C)cc3)c3ccccc3c2=O)cc1
 : -4, 4, -4, i, 20, 14, 11, -13
> O=C(CCc1nc2ccccc2c(=O)[nH]1)N1CCN(S(=O)(=O)c2cccc(F)c2)CC1
 : -3, 5, -7, i, -4, -4, -2, -25
> Cc1cc(C)n(C(C)CNS(=O)(=O)c2ccccc2)n1 (stereo unspecified)
 : 5, 3, -3, i, -4, -5, -5, 0
> C/C(N)=C(/C#N)C(=O)COC(=O)CNC(=O)c1ccc(Cl)cc1Cl
 : 3, 2, x, i, -9, 3, 12, 13
> CC(C)=CCCC1(C)C=Cc2c(c(C)cc3c2[nH]c2cc(O)ccc23)O1 (stereo unspecified)
 : 6, 4, -8, i, 93*, -3, -3, x
> Cc1ccc(-c2noc(CCC(=O)Nc3cccc(C(=O)NC4CC4)c3)n2)cc1
 : 3, -1, -14, x, x, x, x, 4
> CCOc1ccc(N(CC(=O)NC2CCCCC2)S(=O)(=O)c2ccccc2)cc1
 : 0, 2, -8, x, -5, 2, -5, 9
> CS(=O)(=O)N1CC(C(=O)NN)Oc2ccc(Cl)cc21 (stereo unspecified)
 : 1, -1, -10, i, 4, -14, -14, -53
> CC(NCc1ccc(-c2ccccc2)cc1)C(O)c1ccccc1 (stereo unspecified)
 : -6, -10, -5, i, 63, 6, -2, 22
> COc1ccc(C)cc1NC(=O)Cn1cnnn1
 : -4, 2, -13, i, -6, -1, 1, 7

# High-throughput results deposited in PubChem BioAssay by several laboratories.
